D2 PAM: Beta-Arrestin HTS for Positive Allosteric Modulators of the Human D2 Dopamine Receptor: Potentiators. D(2) dopamine receptor (Homo sapiens), P14416. DiscoveRx D2 beta-arrestin cells, luminescence, 90 min; 100% = 57 uM dopamine signal. potentiation, % (concentration not given with the values). 360,000 compounds, 0.23% hits. AID 624464, 2012; active = potentiation of 50% or more; inconclusive = 30% to 50%; inactive = 30% or less;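 note: tested on top of an EC20 dose of dopamine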
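D2 cells co-treated with compound plus 50 nM dopamine (EC20) for 90 min at 37 deg C to detect potentiation. Beta-arrestin recruitment was read as enzyme-fragment luminescence after 1 h at ambient temperature. Full response was set by 57 uM dopamine.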
ClpP mod: qHTS Assay for Activators of ClpP; ATP-dependent Clp protease proteolytic subunit (Bacillus subtilis (strain 168)), P80244; purified B. subtilis ClpP, FRET peptide cleavage, 20 min; Potency, µM (series often up to 57.5 µM), for inactives: at the highest dose activity change, negative = active; 340,000 compounds, 1.9% hits; AID 651965, 2013; active = well fitted falling curve with a large enough effect; inconclusive = small, poorly fitted or top-dose-only effect; inactive = no such curve, though single readings can be large or run the other way; note: potency is the fitted concentration of half-maximal effect; the source files actives as falling curves though it sought activators and does not explain the sign; nearly all actives have a fitted effect of over 65% in size; many hits overshoot -100%
Target sequence (P80244 whole entry, looked up): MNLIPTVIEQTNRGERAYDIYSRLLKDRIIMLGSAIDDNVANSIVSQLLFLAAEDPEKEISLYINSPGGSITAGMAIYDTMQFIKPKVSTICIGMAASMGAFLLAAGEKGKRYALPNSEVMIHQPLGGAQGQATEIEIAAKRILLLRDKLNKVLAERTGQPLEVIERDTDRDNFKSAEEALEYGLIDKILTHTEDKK
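ClpP 10 microg/mL final, pH 8 Tris/KCl buffer with BSA, glycerol, Tween-20; compound pinned in; FRET-FV substrate; RT 20 min; Ex320/Em430; ΔFRET vs ADEP 5.8 microM, DMSO, no enzyme.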
gsp antag: qHTS for Antagonists of gsp, the Etiologic Mutation Responsible for Fibrous Dysplasia/McCune-Albright Syndrome: qHTS. Potency, µM (top dose mostly 76.9 µM), without a hit: top-dose activity change, negative = inhibition, most hits filed as inhibitors. 340,000 compounds, 0.4% hits. gsp-mutant cells, cAMP HTRF, 30 min; control for the full effect not named in the record; active = falling curve of any shape with a large fitted effect; inconclusive = falling curve, mostly with a smaller effect; inactive = flat or rising curve; cell line not stated here;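 note: intracellular cAMP measured with PDE inhibitor Ro 20-1724 present during compound exposure; potency is the fitted concentration of half-maximal effect; % is set by controls: 0 for no effect and ±100 for the full control effect; nearly all actives have a fitted effect of over 65% in size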
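Cells in G418 medium, seeded 16-24 h, 37C; buffer exchange to DPBS + 1 mM CaCl2, 0.5 mM MgCl2, 0.05% BSA; cpds in DMSO + […] (300 uM stock), 30 min 37C; HTRF cAMP detection.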
Sfp inh: qHTS Assay for Inhibitors of Bacillus subtilis Sfp phosphopantetheinyl transferase (PPTase). Potency, µM, for inactives: max response, negative = inhibition, actives largely listed as inhibitors. 4'-phosphopantetheinyl transferase ffp (Bacillus subtilis), Q9F4F7. Biochemical Sfp PPTase activity, qHTS. 310,000 compounds, 3.5% hits; active = well fitted inhibition curve with a large enough effect; inconclusive = small, poorly fitted or top-dose-only effect, or another doubt; inactive = no such curve, though single readings can be large or run the other way;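 note: the enzyme is Sfp with the accession as filed and its product quenches rhodamine fluorescence; potency is the fitted concentration of half-maximal effect; 0% = enzyme reaction without inhibitor and -100% = no enzyme wells; top concentration of the series not given in the record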
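Reaction rates are the 30-min fluorescence difference (ex 525, em 598 nm) in wells containing 15 nM Sfp, 5 uM rhodamine-CoA and 12.5 uM BHQ-2-YbbR at pH 7.6 with 10 mM MgCl2.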
TRPV1 potentiator: HTS Assay for Compounds that Act as Potentiators of the Vanilloid Receptor 1; TRPV1-expressing cells, Fluo-8 calcium influx, capsaicin EC20 potentiation; host cell line not named in the record; control for the full effect not named in the record; potentiation, % at 8.33 µM; AID 540277, 2011; 320,000 compounds, 0.02% hits; Transient receptor potential cation channel subfamily V member 1 (Homo sapiens), Q8NER1; active means potentiation above 80%; inconclusive means 30% to 80%; inactive means below 30%; note: 0% is about no effect
Target sequence (Q8NER1 whole entry, looked up): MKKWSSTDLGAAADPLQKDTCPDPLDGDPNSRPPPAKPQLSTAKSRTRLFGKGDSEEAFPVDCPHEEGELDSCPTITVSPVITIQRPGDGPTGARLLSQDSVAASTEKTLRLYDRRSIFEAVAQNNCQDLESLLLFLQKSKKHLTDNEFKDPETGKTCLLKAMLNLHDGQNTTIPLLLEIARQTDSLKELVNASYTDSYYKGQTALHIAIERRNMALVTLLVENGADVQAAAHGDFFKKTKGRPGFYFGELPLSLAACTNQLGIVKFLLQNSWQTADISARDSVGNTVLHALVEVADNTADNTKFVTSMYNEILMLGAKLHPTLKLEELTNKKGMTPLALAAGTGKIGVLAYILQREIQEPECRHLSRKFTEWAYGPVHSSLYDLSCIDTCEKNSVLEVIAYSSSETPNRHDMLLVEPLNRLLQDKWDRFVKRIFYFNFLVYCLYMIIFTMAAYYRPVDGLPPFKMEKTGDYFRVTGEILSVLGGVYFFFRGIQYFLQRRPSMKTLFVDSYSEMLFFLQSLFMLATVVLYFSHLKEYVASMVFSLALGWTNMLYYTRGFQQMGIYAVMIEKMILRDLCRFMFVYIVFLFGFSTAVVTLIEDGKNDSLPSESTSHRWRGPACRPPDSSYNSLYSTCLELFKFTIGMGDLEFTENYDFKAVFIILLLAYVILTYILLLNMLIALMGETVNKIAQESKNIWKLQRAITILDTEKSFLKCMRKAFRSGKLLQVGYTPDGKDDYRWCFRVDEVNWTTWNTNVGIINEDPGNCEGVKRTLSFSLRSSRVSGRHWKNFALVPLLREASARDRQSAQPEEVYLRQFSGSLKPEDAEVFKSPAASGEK
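Cells expressing TRPV1 were dye-loaded with Fluo-8 and read kinetically: 10 s baseline, 3 min after compound (agonist portion), then 2 min after EC20 capsaicin (allosteric enhancer portion). Calcium-bound dye fluorescence at 480/520 nm.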
Menin-MLL FL inh: qHTS Assay for Inhibitors Targeting the Menin-MLL Interaction in MLL Related Leukemias: Competition With Fluorescein Labeled MLL-derived Peptide; Fluorescence polarization, fluorescein-MLL peptide displacement from menin; FP activity change, % at 61.4 µM; 290,000 tested, under 10 active; AID 1766, 2009; inconclusive = falling polarisation curve, or a change in total fluorescence; inactive = total fluorescence flat and polarisation flat or rising; no compound was filed as active; the % refers to the polarisation; negative = inhibition;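 note: % of control where 0% means no effect; inhibitors lower the polarisation; unlabelled MLL peptide was the positive control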
gsp agonist: qHTS for Agonist of gsp, the Etiologic Mutation Responsible for Fibrous Dysplasia/McCune-Albright Syndrome: qHTS; AID 624287, 2012; gsp mutant cells, cAMP HTRF, 30 min; control for the full effect not named in the record; 340,000 compounds, 0.13% hits; Potency, µM (series often up to 76.9 µM), without a hit: top-dose activation (cAMP increase), hits mostly activators; active = well fitted activation curve with a large enough effect; inconclusive = small, poorly fitted or top-dose-only effect, or another doubt; inactive = no such curve, though single readings can be large or run the other way; cell line not stated here;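 note: phosphodiesterase inhibitor Ro 20-1724 added with compounds to block cAMP breakdown; potency is the fitted concentration of half-maximal effect; nearly all actives have a fitted effect of over 60% in size; about a fifth of the inactives were tested at one dose only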
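Cells stably selected in G418 were plated at 2000/well, grown 16-24 hr, then given compounds in DMSO with the PDE inhibitor […] (300 uM solution added) for 30 min at 37C; cAMP was read by HTRF.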
* hit, by the source's call; ? = inconclusive; . = no result given; & = joins results of further samples; [ ] = dose if it differs, or a comment.

Every second line gives: gsp agonist	Sfp inh	TRPV1 potentiator	D2 PAM	gsp antag	Menin-MLL FL inh	ClpP mod
COc1ccc(CN(C)C2CCCCC2)cc1
  -3%	-8%	-10	-13	15%	5.6	-2.2%
O=C(O)c1ccc(Cn2cnc3c(=O)[nH]cnc32)cc1
  2%	.	.	4	-6%	.	-0.8%
Cc1ccc(S(=O)(=O)c2ncccc2[N+](=O)[O-])cc1
  27%	-13%	-4	19	-19%	-11	1.6%
CSCCC(NC(=O)c1cccc(C)c1)C(=O)OCC(=O)Nc1c(C)nn(-c2ccccc2)c1C (stereo unspecified)
  -12%[15.4 µM]	.	-26	-5	-17%	.	.
COC(=O)c1sc2cc(=O)n(-c3cccc(C(F)(F)F)c3)nc2c1O
  -3%[15.4 µM]	-4%	-4	-5	-4%	-2.3	.
O=C(Nc1ccccc1C(=O)Nc1ccc2c(c1)OCO2)c1ccco1
  -48%[inhibitor]	6%	-22	-2	3%	-0.7	-0.4%
CCO/C(C)=C1\N=C(c2ccc(Cl)cc2)OC1=O
  -9%	22%	5	1	14%	-1.2	4.8%
Cn1cc(C(=O)N/N=C/c2cccc(O)c2)ccc1=O
  10%	19%	1	2	-2%	-4.0	.
CCOC(=O)N1CCC(NC(=O)c2ccc(OC)c(CN3CC(=O)N4CCCC4C3=O)c2)CC1 (stereo unspecified)
  -20%	13%	5	-1	-7%	3.1	0.7%
CC(=O)c1cccc(N2Cc3ccccc3C2=NC(=O)CCl)c1
  -34%[15.4 µM]	?	-4	-6	-2%	-0.4	.
Cc1ccc(-c2nnc(NC(=O)Cc3ccc(F)cc3)o2)c(C)c1
  1%	19%	-6	-21	18%	-3.4	-4.1%
O=C(CSc1nccc(=O)[nH]1)Nc1ccc(Oc2ccccc2)cc1
  3%	-3%	4	-2	-7%	-1.2	0.2%
CCn1nc(C(=O)NNC(=O)COc2ccc(OC)cc2)c2ccccc2c1=O
  -39%[inhibitor]	29%	13	-2	1%	.	-0.8%
COc1ccc(NC(=O)C/C(C)=N/NC(=O)C(=O)NC2CCCCC2)c(OC)c1
  -3%[15.4 µM]	4%	4	-1	-15%	1.4	.
Cc1ccc2c(cnn2C(=O)CCC(=O)N2CCCCC2C)c1 (stereo unspecified)
  16%	-4%	-19	-1	3%	4.9	0.1%
Cc1ccc(S(=O)(=O)Nc2cccc(C(=O)NCC(c3ccco3)N3CCCC3)c2)cc1F (stereo unspecified)
  -23%[15.4 µM]	.	-4	-14	-2%	.	.
CCC(C)NC(=O)CN1C(=O)CSc2ccc(S(=O)(=O)N3CCCC3)cc21 (stereo unspecified)
  -40%[inhibitor]	15%	-4	4	7%	-1.4	-0.9%
CCn1cc(CCC(=O)NCCc2ccccc2)c2ccccc21
  -2%	8%	21	-5	-9%	-2.2	.
CC(C)(C)N1C(=O)[C@H]2[C@@H](c3ccc(Br)cc3)N3C(=O)N(c4cccc(Cl)c4)C(=O)[C@@]3(C)[C@H]2C1=O
  .	.	?	-13	-16%	.	0.4%
CCCc1nnc(NC(=O)CCC(=O)NC2CCCCC2)s1
  21%	19%	30	2	4%	-2.7	-0.1%
Cc1ccc2cc(CCNS(=O)(=O)c3ccc(F)cc3)c(=O)[nH]c2c1
  26%	-4%	14	4	-4%	2.0	-22%
O=C(NC1CCN(C(=S)Nc2ccccc2Cl)CC1)C1CCCCC1
  8%[15.4 µM]	7%	-2	-2	-36%	.	.
Cn1c(SCC(=O)Nc2ccc(N3CCOCC3)cc2)nnc1-c1ccccc1
  -85%[inhibitor]	21%	-7	2	-2%	1.5	-3.1%
CC(=O)Nc1ccc(C(=O)OCC(=O)c2cccc([N+](=O)[O-])c2)cc1
  -42%[inhibitor]	19%	8	-7	-5%	2.1	?
CC(C)c1ccc2c(c1)CC[C@H]1[C@](C)(CN)CCC[C@]21C
  .	-28%	.	-7&-9	8%&-5%	-14	-1.5%&-3.7%
C[C@@H]1O[C@@H](O[C@H]2[C@H](O[C@H]3C[C@]4(C)C(C[C@@H](O)C5C([C@]6(C)CC[C@@H](C(C)(C)O)O6)CC[C@]54C)[C@@]4(C)CC[C@H](O)C(C)(C)C34)O[C@H](CO)[C@@H](O)[C@@H]2O)[C@H](O)[C@H](O)[C@H]1O (stereo partly specified)
  .	.	.	-31	10%	.	-0.1%
Cc1nnnn1/C(=C\c1ccccc1)C(=O)OCC(=O)Nc1cccc(S(=O)(=O)N(C)C)c1
  34%	.	3	-29	?	.	0.1%
CCC1=C(OC(=O)N(CC)CC)N2C(=O)OC(=NCCc3c[nH]c4ccccc34)[C@]2(C)[C@H]2C1=CC[C@H]1C(=O)N(C)C(=O)[C@H]12
  .	4%&7%	-15	-6	-6%	-7.7&-1.0	0.0%
Cc1ccc(S(=O)(=O)NCCCCCC(=O)Nc2ccccn2)cc1
  -6%	1%	19	-6	-1%	1.6	-2.5%
CCc1c(C)nc(N2CCN(Cc3ccccc3)CC2)[nH]c1=O
  -2%	2%	-4	3	7%	-1.2	-3.1%
C=CCC1CCC/C(=N\NS(=O)(=O)c2ccc(C)cc2)C1 (stereo unspecified)
  1%	-5%	4	-6	9%	.	0.1%
CCCOc1ccc(-c2nc(C#N)c(N3CCN(C)CC3)o2)cc1
  -2%	-8%	-5	-12	4%	-0.8	32µM*
O=C(CCSCCc1ccccn1)Nc1ccc(Cc2ccncc2)cc1
  -20%	0%	-11	-4	-6%	-4.6	.
O=S(=O)(NC1CCCC1)c1ccc(S(=O)(=O)N2CCCN(Cc3ccccc3)C2)cc1
  -5%	10%	-16	-4	0%	1.3	-1.5%
COc1ccc(S(=O)(=O)NCCc2cn3cccc(C)c3n2)cc1OC
  -82%[inhibitor]	26%	8	-5	4%	-1.3	-4.6%
Cc1c(NS(=O)(=O)c2cccc(C(=O)O)c2)c(=O)n(-c2ccccc2)n1C
  -20%	7%	-1	-6	7%	-2.0	-0.5%&-0.9%
Cc1cccc(C)c1OC(=O)CSc1nnc(-c2ccccc2O)o1
  12%	-3%	-6	-1	-5%	9.7	-14%
CCC(C)NC(=O)C1(C)CCC(=O)N1CCc1ccc(OC)c(OC)c1 (stereo unspecified)
  -19%	17%	7	4	9%	1.8	-0.7%
O=C(CNCc1ccc(F)cc1)Nc1cc(S(=O)(=O)N2CCOCC2)ccc1Cl
  1%	.	.	-4	-17%	.	-0.3%
COc1ccc(CNC(=O)C(c2ccco2)N(C(=O)c2csnn2)c2cccc(C)c2C)cc1 (stereo unspecified)
  0%	1%	-42	-7	-8%	9.1	0.3%
CC1CC(C)CN(C(=O)COC(=O)/C=C/c2cccc([N+](=O)[O-])c2)C1 (stereo unspecified)
  -6%[15.4 µM]	.	-32	6	3%	.	.
CN1CCN(C2Cc3ccccc3Sc3ccc(Cl)cc32)CC1 (stereo unspecified)
  .	-23%	2	.	7%	2.2	-1.1%
COc1ccccc1CNC(=O)C(=O)NCC1CCCN1S(=O)(=O)c1cccs1 (stereo unspecified)
  2%[15.4 µM]	.	22	-7	-8%	.	-1.5%
Cc1ccc(S(=O)(=O)N(C)CC(=O)OCC(=O)NC(c2ccccc2)c2ccccc2)cc1
  19%[15.4 µM]	14%	5	-2	?	2.7	.
COC(=O)CSc1nnc(CNC(=O)c2cccs2)n1-c1cccc(C)c1
  -40%[inhibitor]	17%	4	-12	-11%	3.2	-6.8%
CCC1CCCCN1CCCNC(=O)c1ccc2c(c1)c(C)c(C)n2CC (stereo unspecified)
  ?	6%	4	-37	9%	4.8	-7.1%&-6.2%
CCOC(=O)CNC(=O)c1ccc(Br)s1
  ?	0%	-15	6	11%	1.6	-0.6%
O=C1CN(C(=O)CSc2nncn2-c2ccccc2)c2ccccc2N1
  -2%	9%	?	-4	1%	-0.1	-1.3%
Cc1cc(C)c(C(=O)CC(=O)c2cccnc2)c(C)c1
  21%	.	.	-11	5%	.	.
O=C(OCn1nnc2ccccc2c1=O)c1cc2ccccc2o1
  -46%[inhibitor]	-1%	-29	-5	4%	6.2	1.2%
O=C(Nc1ccc(OC(F)(F)F)cc1)C1CC(c2ccc(F)cc2)=NO1 (stereo unspecified)
  -73%[inhibitor]	22%	-10	-4	9%	-0.6	.
CCc1cccc(C)c1NC(=O)CN1CCN(S(=O)(=O)c2ccc(C(C)(C)C)cc2)CC1
  2%[15.4 µM]	.	-27	-5	-24%	.	.
COc1cc2ccccc2cc1C(=O)N(CCN(C)C)c1nc2ccc(Br)cc2s1
  20%	-23%	3	-29	13%	-1.9	-27%
N#Cc1c(N)c(C(=O)c2ccccc2)n2c1CCCC2
  2%	15%	-5	-9	5%	2.9	10%
CC(=O)C1C(c2ccc(C)cc2)c2c(n[nH]c2C)CC1(C)O (stereo unspecified)
  -25%	18%	0	12	4%	4.0	0.7%
COc1cccc(CNC(=O)CCNC(=O)c2ccccc2OC)c1
  ?	12%	6	-9	11%	.	0.8%
CCN(Cc1ccccc1)C(=O)Cn1c(=O)n(CC(=O)N2CCCCC2)c(=O)c2sccc21
  ?	9%	0	-4	-4%	.	1.4%
C/C(=N\NC(=O)CNc1ccccc1Cl)C(C)(C)C
  1%	15%	-14	3	2%	-1.1	-0.2%
CC1CC(C)CN(C(=O)c2nn(C)c3c2CS(=O)(=O)c2ccccc2-3)C1 (stereo unspecified)
  ?	10%	6	-5	4%	-14	-7.2%
CSc1nc(-c2ccco2)nn1C(=O)c1ccc(C)cc1
  -17%	?	3	1	4%	3.8	1.4%
Cc1ccc(CC(=O)N2CC(C)OC(C)C2)cc1 (stereo unspecified)
  6%	12%	19	-9	18%	2.8	-4.9%

Screens as filed in PubChem BioAssay.
